# Source: PubChem BioAssay (ICCB-Longwood Screening Facility, Harvard Medical School)
# PV pol inh: poliovirus RdRp elongation inhibitors, primary screen, biochemical, fluorescence polarization, total intensity; % elongation, % (compound at 16.7 µg/mL); poliovirus polymerase elongation; stronger effect = lower value; hit rate 0.66% among 150,000; in the data active = % elongation below about 90%; note: some results filed as inactive read as strong as hits
# Target sequence (P03300 1749-2209 limits assumed): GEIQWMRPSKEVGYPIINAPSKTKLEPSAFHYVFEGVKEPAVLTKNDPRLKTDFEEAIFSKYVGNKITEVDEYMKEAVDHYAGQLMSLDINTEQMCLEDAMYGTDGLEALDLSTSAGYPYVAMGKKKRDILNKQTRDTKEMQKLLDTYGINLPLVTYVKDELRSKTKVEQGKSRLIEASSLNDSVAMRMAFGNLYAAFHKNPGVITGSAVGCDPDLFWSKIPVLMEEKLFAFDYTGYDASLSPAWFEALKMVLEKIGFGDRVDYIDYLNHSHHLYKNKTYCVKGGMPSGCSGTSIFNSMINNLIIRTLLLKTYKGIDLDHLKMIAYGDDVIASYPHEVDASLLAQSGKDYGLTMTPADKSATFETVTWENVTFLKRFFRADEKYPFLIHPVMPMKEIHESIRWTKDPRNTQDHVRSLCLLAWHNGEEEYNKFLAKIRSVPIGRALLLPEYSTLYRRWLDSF
# MbtI inh: MbtI salicylate synthase inhibitors, primary screen, biochemical, fluorescence intensity; P9WFX0; purified MbtI enzyme, fluorescence intensity read-out; inhibition, %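 (about 17 µg/mL by stock and volumes)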; hit rate 0.89% among 100,000; AID 493033, 2011;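 active = above 50% in both replicates, above 80% if mildly self-fluorescent; inactive = the rest, strongly fluorescent compounds included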;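 note: 0% = mean of negative and 100% = mean of positive controls; one replicate is shown; some compounds called inactive have numbers as strong as hits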
# MenB inh: M. tuberculosis MenB inhibitors, primary screen, biochemical, absorbance | 1,4-dihydroxy-2-naphthoyl-CoA synthase (Mycobacterium tuberculosis (strain ATCC 25618 / … | MenB enzyme assay, absorbance read-out; some hits fall short of the stated cut | inhibition, %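 (about 12 µg/mL by stock and volumes)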 | hit rate 0.43% among 100,000 | AID 540299, 2011;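 active = mean of two replicates above 30%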;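 note: 0% = no compound and 100% = wells with inactive enzyme; the first replicate is given; strong numbers were not always called active; inactives centre near -10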
# Target sequence (P9WNP5 whole entry, looked up): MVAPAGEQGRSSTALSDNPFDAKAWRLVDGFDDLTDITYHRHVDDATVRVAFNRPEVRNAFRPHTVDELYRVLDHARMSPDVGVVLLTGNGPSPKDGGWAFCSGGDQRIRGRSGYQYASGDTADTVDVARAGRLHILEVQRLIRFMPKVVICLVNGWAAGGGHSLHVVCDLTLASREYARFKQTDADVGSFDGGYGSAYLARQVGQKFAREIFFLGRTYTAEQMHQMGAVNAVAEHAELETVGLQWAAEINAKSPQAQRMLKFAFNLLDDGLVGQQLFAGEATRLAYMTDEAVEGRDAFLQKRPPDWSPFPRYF
# PV pol inh intensity: recorded beside PV pol inh, whose call it bears; % elongation; measured here: total intensity read-out; formula for this scale not given here;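 total fluorescence in place of polarization; lower means less elongation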
# An asterisk follows results filed as active; x = no result given; & = joins results of further samples; ! = repeats disagree.
[1] Cc1nc2sccn2c(=O)c1S(=O)(=O)NCCc1ccccc1
[2] O=C(c1cccc2c1-c1ccccc1C2)N1CCCCC1
[3] Cc1nc(SCSc2nc3ccccc3s2)nc2c1CCCC2
[4] COCCn1c(C)cc(-c2csc(NCc3ccc(C)cc3)n2)c1C
[5] O=C(NCC(c1ccco1)N1CCCCC1)C1(c2ccccc2)CC1 (configuration not stated)
[6] CC1CC(NC(=O)/C(C#N)=C/c2ccc[nH]2)CC(C)(C)C1 (configuration not stated)
[7] CN(C)C(=O)N1CCN(S(=O)(=O)c2ccccc2)C1
[8] CCn1c(=O)c(=O)n(CC)c2cc(S(=O)(=O)NCc3cccs3)ccc21
assay / entry,1,2,3,4,5,6,7,8
PV pol inh,105,104,104,107,96,101,101,102
PV pol inh intensity,102,108,100,103,106,100,99,97
MbtI inh,6,-5,4,3,-4,-12,-1,-7
MenB inh,-15,-15,6,-6,2,-16,-35,-11

[9] CC#CCNC1CCCCC1
[10] O=S(=O)(/N=C/c1ccco1)c1cccs1
[11] O=c1c(-c2cc(F)ccc2F)c(O)nc2n1CCCC2
[12] CCOc1ccc(N(CC)C(=O)NC2CC(=O)N(c3ccc(OC)cc3)C2)cc1 (configuration not stated)
[13] Cc1cc(=O)oc2c1c(C)nn2C
[14] Cc1c(C(=O)NN2CCN(C)CC2)oc2ccccc12
[15] S=C(NCC1CCCO1)N1CCn2c(nc3ccccc32)C1 (configuration not stated)
[16] CCOC(=O)c1cc(-c2ccnn2S(=O)(=O)c2cccc(C(F)(F)F)c2)on1
assay / entry,9,10,11,12,13,14,15,16
PV pol inh,102,107,100,101,104,100,100,98
PV pol inh intensity,103,97,104,101,102,101,97,108
MbtI inh,9,-4,-2,-5,8,-7,12,1
MenB inh,6,-29,-4,-9,-7,-9,7,9

[17] Oc1ccc(Cl)cc1
[18] O=C(COC(=O)C1CCCO1)Nc1cc(Cl)cc(Cl)c1 (configuration not stated)
[19] O=C(CSCc1nnc(-c2ccc(F)cc2)o1)Nc1ccccc1F
[20] O=C(Nc1ccc(C(=O)N2CCCCC2)cc1)C1=CSCCO1
[21] Cc1cc(C(=O)CSc2nc3ccccc3o2)c(C)n1CC1CCCO1 (configuration not stated)
[22] COc1cc(C(=O)N=c2c(C#N)cc3c(=O)n4cccc(C)c4nc3n2C(C)C)cc(OC)c1OC
[23] O=C(Nc1ccc(OCC(F)(F)C(F)F)c(C(F)(F)F)c1)c1ccccc1O
[24] Cc1ccc(S(=O)(=O)N2Cc3ccccc3CC2C(=O)NC2CCCCC2)cc1 (configuration not stated)
assay / entry,17,18,19,20,21,22,23,24
PV pol inh,100,103,111,101,102,104,102,103
PV pol inh intensity,103,108,106,102,107,112,100,104
MbtI inh,-23,x,17,-2,8,-16,-219,3
MenB inh,-3,-10,-7,-14,-23,-14,-6,x

[25] c1ccc(Cn2c(NCc3ccncc3)nc3ccccc32)cc1
[26] COc1ccc(CC(C)CC(=O)Nc2ccc(I)cc2)cc1 (configuration not stated)
[27] Cc1oc(-c2ccccc2)nc1CSc1nc2ncccc2o1
[28] COc1ccc(C(=O)OCN2C(=O)c3ccccc3C2=O)cc1
[29] O=C1CCN(C(=S)NCc2ccccc2)CC1
[30] CN(C)S(=O)(=O)c1cccc(-c2cn3cc(Cl)ccc3n2)c1
[31] COc1ccccc1N(Cc1ccccc1O)C(=O)COc1ccccc1C
[32] O=C(NN=C1CCCC1)c1ccc2c(c1)OCO2
assay / entry,25,26,27,28,29,30,31,32
PV pol inh,101,104,99,100,99,100,102,108
PV pol inh intensity,100,97,103,101,98,104,99,98
MbtI inh,0,2,-4,-13,10,-77,-6,12
MenB inh,-15,-40,12,-35,-24,3,x,21

[33] O=S(=O)(Nc1nc2ccccc2nc1Sc1nc2ccccc2o1)c1ccccc1
[34] CC(C)NCC1CCCO1 (configuration not stated)
[35] CC1CCCC(C(=O)O)N1C(=O)CCS (configuration not stated)
[36] CC(C)N(Cc1ccccc1)C(=O)CSc1nc(C(C)(C)C)nc2c1c(=O)n(C)c(=O)n2C
[37] CC(C)=CCCC1=CCC2C(=O)NNC(=O)C2C1 (configuration not stated)
[38] COc1ccccc1NS(=O)(=O)c1ccc(NC(=O)CCN2C(=O)C3CC=CCC3C2=O)cc1 (configuration not stated)
[39] O=c1[nH]c(C(F)(F)F)nc2c1cnn2-c1ccccc1
[40] CCCCNc1c(C(=O)OCC)c(C)nc2c1cnn2CC
assay / entry,33,34,35,36,37,38,39,40
PV pol inh,102,101,101,97,100,100,103,99
PV pol inh intensity,91,100,102,95,103,101,104,103
MbtI inh,-46,-2,-2,1,-16,7,-6,-6
MenB inh,-35,12,4,-10,-11,-3,x,-10

[41] COc1ccc(NC(=O)C(CC(C)C)NS(=O)(=O)c2ccc3[nH]c(=O)oc3c2)cc1 (configuration not stated)
[42] CCOC(=O)C(C)Oc1cc2oc(=O)c3c(c2cc1Cl)CCCC3 (configuration not stated)
[43] COc1ccc(NC(=O)CN2CCCC2)cc1
[44] CC(=O)N(Cc1cc2ccc(C)cc2[nH]c1=O)CC1CCCO1 (configuration not stated)
[45] COc1ccc(C2=NN3C(C2)c2ccccc2OC32C(=O)Nc3ccccc32)cc1 (configuration not stated)
[46] COc1ccc(CN(CCN(C)C)Cc2ccccc2)c(OC)c1
[47] CC(C)(C)SCCNc1nc(Sc2ccc(Cl)cc2)nc(N2CCSCC2)n1
[48] CC[n+]1c(-c2ccccc2)c2cc(N)ccc2c2ccc(N)cc21
assay / entry,41,42,43,44,45,46,47,48
PV pol inh,101,100,101,100,99,100,106,75*
PV pol inh intensity,98,98,104,108,102,99,108,59*
MbtI inh,-3,9,3,-54,-11,-3,-5,4
MenB inh,12,-15,18,-8,-8,-3,1,12

[49] N#CC1(c2ccccc2)N=C2C=CC=CN2N=C1c1ccccc1 (configuration not stated)
[50] CC1=[N+]([O-])C(C)(C)C(c2cccs2)=[N+]1[O-]
[51] C=CCn1c(N)c(C(N)=O)sc1=S
[52] C[N+]1(CCOC(=O)Nc2ccccc2)CCCCC1
[53] COc1ccc(OC)c(/C=N\NC(=O)C2C(=O)NCC2c2ccccc2)c1 (configuration not stated)
[54] CCn1nnc(N(C(=O)c2cccs2)C(=O)c2cccs2)n1
[55] CCOC(=O)c1cc(C(=O)c2ccc(Cl)cc2)n2c1ccc1ccccc12
[56] Cc1cc(C)c2c(=O)cc(C(F)(F)C(F)F)oc2n1
assay / entry,49,50,51,52,53,54,55,56
PV pol inh,106,101,102,102,101,102,104,101
PV pol inh intensity,110,101,99,107,102,98,102,104
MbtI inh,7,40,-10,-1,-435,21,x,-6
MenB inh,4,2,-46,13,-6,-70,-2,6

# 14 entries from above, tab-delimited.
entry	Molecule	PV pol inh	PV pol inh intensity	MbtI inh	MenB inh
43	COc1ccc(NC(=O)CN2CCCC2)cc1	101	104	3	18
44	CC(=O)N(Cc1cc2ccc(C)cc2[nH]c1=O)CC1CCCO1 (configuration not stated)	100	108	-54	-8
45	COc1ccc(C2=NN3C(C2)c2ccccc2OC32C(=O)Nc3ccccc32)cc1 (configuration not stated)	99	102	-11	-8
46	COc1ccc(CN(CCN(C)C)Cc2ccccc2)c(OC)c1	100	99	-3	-3
47	CC(C)(C)SCCNc1nc(Sc2ccc(Cl)cc2)nc(N2CCSCC2)n1	106	108	-5	1
48	CC[n+]1c(-c2ccccc2)c2cc(N)ccc2c2ccc(N)cc21	75*	59*	4	12
49	N#CC1(c2ccccc2)N=C2C=CC=CN2N=C1c1ccccc1 (configuration not stated)	106	110	7	4
50	CC1=[N+]([O-])C(C)(C)C(c2cccs2)=[N+]1[O-]	101	101	40	2
51	C=CCn1c(N)c(C(N)=O)sc1=S	102	99	-10	-46
52	C[N+]1(CCOC(=O)Nc2ccccc2)CCCCC1	102	107	-1	13
53	COc1ccc(OC)c(/C=N\NC(=O)C2C(=O)NCC2c2ccccc2)c1 (configuration not stated)	101	102	-435	-6
54	CCn1nnc(N(C(=O)c2cccs2)C(=O)c2cccs2)n1	102	98	21	-70
55	CCOC(=O)c1cc(C(=O)c2ccc(Cl)cc2)n2c1ccc1ccccc12	104	102	x	-2
56	Cc1cc(C)c2c(=O)cc(C(F)(F)C(F)F)oc2n1	101	104	-6	6

# Next part.
[57] CCOc1cc(C#N)cc(Cl)c1O
[58] CCOC(=O)C1CCCN(c2cc(Nc3ccc4c(c3)OCO4)c3c4c(onc24)-c2ccccc2C3=O)C1 (configuration not stated)
[59] CCCC(=O)N1CC2(C)CN(C(=O)CCC)CC(c3ccccc3)(C1)C2=O
[60] Cc1cc(C(=O)COC(=O)CCc2nc3ccccc3s2)c(C)n1CC1CCCO1 (configuration not stated)
[61] NC(=O)c1oc2ccccc2c1NC(=O)Cc1ccc(Cl)cc1
[62] CCOC(=O)c1c(CC(C)C)csc1NC(=O)Cc1ccccc1
[63] CN(Cc1nc2ccccc2c(=O)[nH]1)C(=O)c1nn(Cc2ccccc2)c(=O)c2ccccc12
[64] COc1cc(NC(=O)CN2CCCCCC2=O)c(OC)cc1Cl
assay / entry,57,58,59,60,61,62,63,64
PV pol inh,105,103,101,x,100,103,104,103
PV pol inh intensity,105,106,100,x,102,100,103,102
MbtI inh,-13,-7,-4,0,-186,4,11,-7
MenB inh,-2,-13,1,-16,-19,x,3,-20

[65] Cc1ccccc1C1C2=C(Nc3c1c(=O)n(C)c(=O)n3C)c1ccccc1C2=O (configuration not stated)
[66] O=C(NC(Nc1ccc(Cl)cc1)C(=O)c1ccccc1)c1ccccc1 (configuration not stated)
[67] Cc1sc(/N=C/c2ccc(Br)s2)c(C(N)=O)c1C
[68] Cc1ccc2nc(CSc3nnc(-c4cccs4)n3CC3CCCO3)cc(=O)n2c1 (configuration not stated)
[69] S=c1[nH]nc2ccccn12
[70] COc1ccc(Nc2cc(C)c(C#N)c3nc4ccccc4n23)cc1
[71] CCNc1ccc(S(=O)(=O)C(F)(F)F)cc1NC(=O)C12CCC(CC1)C2
[72] CN(C)C(=O)c1ccc(Oc2ccc(C(=O)N(C)C)cc2)cc1
assay / entry,65,66,67,68,69,70,71,72
PV pol inh,103,104,103,102,100&100,101,106,102
PV pol inh intensity,101,109,103,106,95&98,107,108,107
MbtI inh,10,-4,x,32,92*!,3,-3,0
MenB inh,-1,-19,-31,-18,3&-1,5,x,-26

[73] C=Cn1cnc2c1c(=O)n(C)c(=O)n2C
[74] Fc1ccc(C2=Nn3c(Cc4ccccc4)nnc3SC2)cc1
[75] COC(=O)CC1C(=O)NC2CCCCC2N1C(=O)c1ccccc1 (configuration not stated)
[76] Cc1cc(C)c(C)c(S(=O)(=O)N2CCN(CCn3c(C)csc3=O)CC2)c1C
[77] C=C(C)C1CC=C(CN2CCC(C(=O)OCC)CC2)CC1 (configuration not stated)
[78] CCCNCC1CCCO1 (configuration not stated)
[79] O=C(O)COCC(=O)Nc1ccc2c(c1)CCC2
[80] CC(C)NC(=O)/C(=N\O)c1ccccc1
assay / entry,73,74,75,76,77,78,79,80
PV pol inh,101,104,103,108,100,104,104,102
PV pol inh intensity,103,98,101,105,103,102,99,107
MbtI inh,1,-12,-5,-3,-20,-5,0,-6
MenB inh,13,x,-10,-1,-7,8,-54,-2

[81] O=c1c(Cl)c(Cl)cnn1Cc1ccccc1
[82] CCN1C(=O)/C(=C\c2ccc(OC)cc2)C(C(=O)OC)=C1C
[83] O=C(CCCc1cccs1)Nc1nccs1
[84] CC(C)COC(=O)C(C)Nc1n[nH]c(=S)[nH]c1=O (configuration not stated)
[85] COc1ccc(-c2c(C)oc3cc(OC)ccc23)cc1
[86] Cc1ccc(-n2cc(-c3ccccc3)c3c(NCCN4CCOCC4)ncnc32)cc1
[87] CN(C)C(=O)CSc1cccc2cccnc12
[88] CC(Sc1nnc2n1CCCCC2)C(=O)c1c[nH]c2ccccc12 (configuration not stated)
[89] CN(Cc1ccccc1)c1nc2c(S(=O)(=O)c3ccccc3)nnn2c2ccccc12
assay / entry,81,82,83,84,85,86,87,88,89
PV pol inh,97,81,101,104,102,103,101,102,101
PV pol inh intensity,95,132,98,103,99,104,100,99,101
MbtI inh,22,x,-43,x,-10,-11,151,2,72
MenB inh,-20,-19,2,-23,-4,-13,-18,-4,-5

# No enrichment for hits. About 1.8% of those tested had a hit in this group.
